Screening results from PubChem BioAssay.
Yeast UUG start = modulators of yeast start codon fidelity, primary screen, whole organism, S. cerevisiae, single point, plate reader; activity score, % at 18.7 µM; 350,000 compounds, 0.13% hits; S. cerevisiae UUG-firefly luciferase reporter, luminescence/redox ratio;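 active = replicate mean at a twofold rise or more, about +100% in these data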;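 note: firefly luciferase made from a UUG start codon reports start codon fidelity; reporter light over untreated wells divided by growth signal over untreated wells; some hits fall short of that in this replicate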
Env fusion inh = inhibitors of HIV-1 Env-driven cell-cell fusion, primary screen, HeLa-JRFL effector, CEM21 target cells, luciferase; inhibition, % at 12.3 µM; 360,000 compounds, 1.1% hits;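 active = mean replicate inhibition score of at least 50 and every replicate individually at or above 50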;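 note: 0% = plate neutral controls and 100% = maraviroc near 300 nM; one replicate is shown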
Rce1 inhib = yeast Rce1p protease inhibitors, primary screen, biochemical, fluorescence, cell-free homogeneous; yeast membranes, quenched prenylated peptide cleavage fluorescence; 290,000 compounds, 0.27% hits; calls only; AID 2563, 2010;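 active = fall in fluorescence gain of 50% or more versus controls, with final raw signal at or below 3038400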;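 note: plate controls were neutral control wells for no effect and wells lacking membranes for full effect; tested at 10 µM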
Target sequence (Q03530 whole entry, looked up): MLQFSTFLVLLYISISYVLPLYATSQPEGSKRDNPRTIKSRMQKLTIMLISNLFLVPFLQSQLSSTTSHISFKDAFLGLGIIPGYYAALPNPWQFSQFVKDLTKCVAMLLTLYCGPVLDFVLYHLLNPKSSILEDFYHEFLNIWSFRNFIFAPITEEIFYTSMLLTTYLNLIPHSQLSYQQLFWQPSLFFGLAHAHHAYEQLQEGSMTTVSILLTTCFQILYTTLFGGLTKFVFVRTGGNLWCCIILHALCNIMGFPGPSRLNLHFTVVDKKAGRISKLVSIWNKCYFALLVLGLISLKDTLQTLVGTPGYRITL
MT1-MMP act inh = blockers of MT1-MMP proenzyme processing, primary screen, HT1080 RFP-PRO-GFP cells, GFP/RFP fluorescence; GFP/RFP ratio fluorescence, overnight; percent of plate control window, DMSO zero; 360,000 compounds, 0.061% hits; AID 651647, 2012; Matrix metalloproteinase-14 (Homo sapiens), P50281; GFP/RFP ratio change, % at 20 µM;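 active = GFP/RFP ratio change of at least 30% with cell ATP level not reduced by more than half and red fluorescence within 50% of control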; note: strong numbers were not always called active
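Material: RFP-PRO-GFP reporter HT1080 cells. Dosing: single-point 20 µM compound, 1% DMSO. Controls: DMSO and RFP-L50D-GFP cell wells. Timing: cells overnight before dosing, compound overnight, 37 °C, 5% CO2. Measure: GFP/RFP fluorescence ratio.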
eIF4H inh = human eIF4H binding inhibitors, primary screen, translation initiation inhibitor project, biochemical, uHTS, fluorescence polarization; Eukaryotic translation initiation factor 4H (Homo sapiens), Q15056; AID 2012, 2009; eIF4H fluorescence polarization binding assay; 290,000 compounds, 0.94% hits; inhibition, % at 35 µM;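 active = 50% or more with normal probe brightness, or confirmed in later tests; about a fifth of its hits are not listed in these tables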;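 note: calls also rest on retests at 20 µM and on dose response follow-up; 0% = protein and probe with vehicle and 100% = probe without protein; strong numbers were not always called active; many hits fall short of the cut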
PABP FP inh = PABP poly(A) RNA binding inhibitors, primary screen, biochemical, fluorescence polarization, uHTS. AID 2014, 2009. inhibition, % at 35 µM. 290,000 compounds, 1% hits. Polyadenylate-binding protein 1 (Homo sapiens), P11940;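 active = 50% or more with normal probe brightness, or confirmed in later tests; about a fifth of its hits are not listed in these tables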;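 note: calls also rest on retests at 20 µM and on dose response follow-up; controls were probe without protein and protein plus probe with vehicle; some compounds called inactive have numbers as strong as hits; many hits fall short of the cut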
CSC inhib = cancer stem cell viability inhibitors, primary screen, luminescence; inhibition, % at 7.5 µM; cancer stem cell-like cells viability; 300,000 compounds, 1.1% hits;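 active = mean at 75% or more and at least half the replicates too; tested in HMLE shEcad cells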;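 note: 0% = median of negative and 100% = median of positive control wells; the first replicate is given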
MT1-MMP act inh RFP = further read-out of MT1-MMP act inh, marked with its call; RFP signal change, %; measured here: RFP expression control read;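 0 = vehicle wells; hits needed this value within 50% of zero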
The depositor's hits bear a star; i = inactive; . = no result given; & = joins results of further samples; [ ] = another dose, or the depositor's remark. An excerpt; rates above refer to the full screens.

SMILES	Yeast UUG start	Env fusion inh	Rce1 inhib	MT1-MMP act inh	MT1-MMP act inh RFP	eIF4H inh	PABP FP inh	CSC inhib
Cc1ccc(S(=O)(=O)N2C[C@H]3n4c(=O)ccc(=O)n4C[C@H](OC(=O)NCc4ccccc4)[C@@]3(O)C2)cc1	5	11	.	-1	-3	.	.	.
CCOC(=O)c1ccc(S(=O)(=O)N2CC(=O)Nc3ccccc32)cc1	-18	-71	i	-6	-1	14	0	20
CC(=O)c1cccc(NC(=O)C(=O)Nc2cccc3ccccc23)c1	.	-35	i	-1	-1	-2	-2	9
CCOC(=O)C(CC(C)C)CP(=O)(O)CNC(=O)OCc1ccccc1 (centres undefined)	.	.	i	5	7	-8	6	15
O/N=C(/Cc1ccccn1)c1ccccc1	-1	.	i	0	2	-7	-4	-7
CC(C)C1CC(CCNCc2ccc3c(c2)OCO3)(c2ccccc2)CCO1 (centres undefined)	.	-9	i	1	-1	3	-3	15
CC(C)Sc1cc(N2CCCC2)nc(-c2ccccc2Cl)n1	-7	-15	i	-8	-4	4	5	9
C=CCN1C(=O)c2ccc(C(=O)OCC(=O)Nc3ccc(S(N)(=O)=O)cc3)cc2C1=O	-13	-20	i	-2	4	.	.	-22
COc1ccc(CN2CCN(C(=O)c3cc(-c4cccnc4)nc4ccc(Cl)cc34)CC2)c(OC)c1OC	-3	2	i	-15	-10	-1	-7	13
Cc1cc(O)cc(O)c1C=NCc1ccco1	.	.	i	-49	16	1	-11	-6
COc1ccc(OCc2nc3c4cc(OC)c(OC)cc4nc(=S)n3[nH]2)cc1	.	-11	i	17	5	-5	-14	-11
Cc1cccc(N2CCN(c3cc(C)nc4nnnn34)CC2C)c1 (centres undefined)	.	.	i	-1	-3	-6	-1	-12
O=C(CCc1ccc(S(=O)(=O)NC2CCCCC2)cc1)NCc1ccccc1	5	.	i	3	-5	-3	1	2
CCOC(=O)c1c(C)n(C)c2cc(Br)c(O)c(O)c12	-6	-19	i	8	-2	-9	5	26
Clc1cccc(Cl)c1CSc1nnc(-c2sccc2-n2cccc2)o1	-17	.	i	0	-7	-9	5	14
Cc1nn(-c2ccccc2)c(C)c1C(=O)NCc1ccc(S(N)(=O)=O)cc1	-8	-2	i	-2	-4	-7	-4	4
COc1cccc(C(O)c2nc(-c3ccncc3)cs2)c1 (centres undefined)	-10	25	.	-2	-29	.	.	.
Cc1ccc(N=C2SC(C(=O)Nc3ccc(OC(F)(F)F)cc3)C(N)=C2C(=O)Nc2c(C)cc(C)cc2C)cc1 (centres undefined)	.	-41	.	-27	-16	-12	-3	106*
COc1ccc(-c2coc3cc(OC(C)=O)ccc3c2=S)cc1	-26	-100	.	-1	-8	.	.	.
Cc1c(NC(=O)CC(=O)Nc2c(C)n(C)n(-c3ccccc3)c2=O)c(=O)n(-c2ccccc2)n1C	8	.	i	6	0	9	-6	-1
COc1ccc(NC(=O)C(=O)NNC(=O)C(C)Oc2ccc(Cl)cc2Cl)cc1 (centres undefined)	-10	-14	i	6	5	11	1	.
COC(=O)C/C(O)=C(/N=Nc1cccc(C(F)(F)F)c1)C(=O)OC	.	-16	i	-4	0	14	0	-13
CCn1c(C(O)c2cccc(OC)c2OC)nc2ccccc21 (centres undefined)	.	.	i	-1	-1	-9	1	16
O=S1(=O)[C@H]2C[C@@H]3C=C[C@@]2(CN1Cc1cccc(F)c1)O3	-11	-4	i	-1	4	-10	0	1
Cc1ccc(C(=O)c2nccn2C)cc1C	-18	-11	i	-4	-3	-3	7	0
Cc1cc(=O)oc2cc(OCC(=O)N/N=C/c3ccccc3O)ccc12	-15	-3	i	5	3	1	8	.
N#CCC(=O)Nc1ccccc1C(=O)O	-12	.	i	-2	7	-12	5	-7
CC(=O)Nc1n[nH]c(-c2ccc(C)cc2)c1C	-7	-44	.	2	0	-7	-3	-3
CCO[C@@H]1OC(C(=O)Nc2ccccc2)=C[C@H](c2coc3ccccc3c2=O)[C@H]1CCCO	29&-5	-6[16.7 µM]	i	19	8	-6	6	10
O=C(Nc1ccccc1C(=O)Nc1nnc(C(F)(F)F)s1)c1ccccc1	7	44	i	4	-27	-2	1	195*
Cc1ccccc1NC(=O)CCn1c(=O)oc2ccccc21	7	33	i	0	0	-6	2	11
Cc1ccc(-c2csc(NC(=O)CN3CC(C)OC(C)C3)n2)cc1 (centres undefined)	-8	11	i	-4	-19	1	4	45
CC(=O)c1ccc(NC(=O)C(C)NCc2ccc(Cl)cc2)cc1 (centres undefined)	.	4	.	-3	-1	22	48	-1
Cc1nc2c(C)cccn2c1C(=O)c1ccccc1	-17	5	i	-3	-4	4	10	3
CC(C)CC1C(=O)N(Cc2cn(CCC3OCCO3)nn2)CCS(=O)(=O)N1Cc1ccc(-c2ccncc2)cc1 (centres undefined)	-20	-19	.	1	-5	.	.	.
O=C(NCCCn1ccnc1)c1cccc(S(=O)(=O)Nc2ccccc2F)c1	.	.	i	-4	2	1	-1	.
Cc1ccc(OCC(=O)c2cc(C)c(C)cc2C)c([N+](=O)[O-])n1	.	.	i	3	0	9	18	-3
CC(C)(C)NC(=O)C(c1ccc(F)cc1)N(CCc1ccccc1)C(=O)c1ccn[nH]1 (centres undefined)	.	-31	i	-6	-3	-2	6	-1
CN(C)c1cccc(C(=O)Nc2cccc(S(=O)(=O)NC3=NCCC3)c2)c1	-5	-41	i	2	0	-4	37	-4
COc1cc(C(=O)O[C@H]2CC(C)=CC[C@@]3(C)CC[C@@](O)(C(C)C)[C@H]23)ccc1O	10	88*	i	2	1	3	5	33
Cc1cc(NC(=O)COC(=O)c2ccccc2O)no1	-14	5	.	2	1	.	.	-8
COc1ccc(CC(=O)OCC(=O)Nc2ncc(Cl)c(C)c2Cl)cc1	-2	-12	.	3	8	.	.	.
Cc1cc(NC(=O)CCN2C(=O)C3C4C=CC(C4)C3C2=O)c2ccccc2n1 (centres undefined)	-25	.	i	0	-15	-8	-9	-17
Clc1cc(Cl)c2nc(N3CCCCC3)sc2c1	-4	-225	i	3	-5	8	5	11
COc1ccc(/C(N)=N/OC(=O)Cc2cccs2)cc1	-1	.	i	12	1	6	11	-5
CCOC(=O)c1cc2c(c(CCO)n1)[C@@H](CCO)N(S(=O)(=O)C(C)(C)C)C2	3	3	.	5	8	.	.	.
NNC(=O)[C@H]1C[C@@H]1c1ccccc1	.	-7	i	-1	1	-5	-8	-3
CC1=C(CO)C(=O)OC([C@@H](C)C2CC[C@H]3C4C[C@H]5O[C@]56[C@@H](O)C=CC(=O)[C@]6(C)C4CC[C@]23C)C1 (some centres undefined)	10	.	i	16	-28	3	8	99*
CC1CCN(C(=O)c2ccc(NS(=O)(=O)c3ccc4[nH]c(=O)[nH]c4c3)cc2)CC1	.	-8	.	-2	5	.	.	-9
Fc1ccc2cnc(-c3ccccc3)c(-c3ccc(C(F)(F)F)cc3)c2c1	7	31	.	-4	0	.	.	17
O=C(COC(=O)CNC(=O)c1ccccc1F)NC1CC1	-20	12	.	1	2	.	.	0
CCOC(=O)c1cnc(-n2nc(C)cc2C)nc1N1CC(C)OC(C)C1 (centres undefined)	-32	-29	i	1	5	.	.	-20
O=C(Nc1ccc(Cl)cn1)c1cccc(OCc2ccccc2)c1	13	-40	i	0	-1	-8	-6	64
COc1cccc(NC(=O)CSc2nnc(-c3cc(C)[nH]n3)n2N)c1	-15	0	i	1	4	8	0	-13
CCOC(=O)N1CCN(C(=O)c2ccc3c(=O)n(CCc4ccccc4)c(=O)[nH]c3c2)CC1	-20	19	i	1	-4	2	-1	-5
CCOP(=O)(OCC)C(Nc1ccccn1)c1ccc(F)cc1 (centres undefined)	.	3	i	2	1	2	3	-5
CC(CC(=O)N1CCc2ccccc21)S(=O)(=O)c1ccc2c(c1)NC(=O)CO2 (centres undefined)	-7	6	i	2	1	-3	-5	2
COc1ccc(C(=O)C[n+]2ccc(-c3nnc4n3CCCCC4)cc2)cc1	-13	1	i	-3	6	-6	3	-12
O=C(CN1CCC(C(=O)c2ccc3c(c2)OCCO3)CC1)NCc1ccccc1	-6	6	i	2	0	-4	-5	.
CN(CC(=O)Nc1ccc(Br)cc1)Cc1ccccc1	-2	-6	i	-2	-3	-8	7	-2

Whole records from above. Screens in order: Yeast UUG start | Env fusion inh | Rce1 inhib | MT1-MMP act inh | MT1-MMP act inh RFP | eIF4H inh | PABP FP inh | CSC inhib
O=C(CN1CCC(C(=O)c2ccc3c(c2)OCCO3)CC1)NCc1ccccc1 reads -6 | 6 | i | 2 | 0 | -4 | -5 | .
COc1ccc(CC(=O)OCC(=O)Nc2ncc(Cl)c(C)c2Cl)cc1 reads -2 | -12 | . | 3 | 8 | . | . | .
CC1=C(CO)C(=O)OC([C@@H](C)C2CC[C@H]3C4C[C@H]5O[C@]56[C@@H](O)C=CC(=O)[C@]6(C)C4CC[C@]23C)C1 (some centres undefined) reads 10 | . | i | 16 | -28 | 3 | 8 | 99*
O=C(Nc1ccc(Cl)cn1)c1cccc(OCc2ccccc2)c1 reads 13 | -40 | i | 0 | -1 | -8 | -6 | 64

Additional results
SMILES	Yeast UUG start	Env fusion inh	Rce1 inhib	MT1-MMP act inh	MT1-MMP act inh RFP	eIF4H inh	PABP FP inh	CSC inhib
Cc1ccc(-c2noc(CN(C(=O)c3cccs3)C(C)C)n2)cc1	-9	.	i	1	-5	-16	2	1
O=C(/C=C/c1cccs1)NC(=S)Nc1ccccc1	-19	-28	i	1	4	-2	5	2
COc1ccc(OC)c2sc(NC(=O)c3ccc(S(=O)(=O)N4CCOCC4)cc3)nc12	0	2	i	-2	0	-7	-8	.
O=S(=O)(c1cc(F)ccc1F)N1CCN(c2ncnc3ccccc23)CC1	-1	.	.	-2	-29	.	.	48
CC(C(=O)Nc1ccc(S(=O)(=O)N2CCCC2)cc1)N(C)Cc1ccc(F)cc1 (centres undefined)	-17	-14	.	-6	-4	.	.	8
CN(Cc1nccn1C)C(=O)c1cc(COc2ccc3ncccc3c2)on1	.	12	i	1	-16	2	-10	-4
Cc1nn(CC(=O)NCCCN2CCC(Cc3ccccc3)CC2)c(=O)c2cc(-c3ccccc3)nn12	-7	2	i	-3	-8	-10	0	36
CCOc1ccc(N(C(=O)Nc2ccccc2)C2=NCCC2)cc1	-23	.	i	-2	2	8	-12	6
CN(C)S(=O)(=O)c1cccc(NC(=O)c2cc(-c3cccs3)nc3ccccc23)c1	-17	17	i	5	0	-2	-6	15
CCCCCn1c(CCNC(=O)CCC)nc2ccccc21	-15	-23	i	0	0	0	-24	-10
COc1ccc2c(c1)CCCC21NC(=O)N(CC(N)=O)C1=O (centres undefined)	-1	13	i	7	-1	-12	2	.
CN1C(=O)CC(C(=O)O)SC1=Nc1cccc(C(F)(F)F)c1 (centres undefined)	.	46	i	3	4	-1	10	-13
Cn1nc(C(C)(C)C)c([N+](=O)[O-])c1C(=O)NC(C)(C)C	-7	1	i	.	.	0	-8	-7
c1ccc(-c2nc3ccccc3nc2N2CCOCC2)cc1	-5	.	i	0	4	-6	-6	-9
O=C(c1ccco1)N1CCN(Cc2nc3ccccc3[nH]2)CC1	-2	.	.	-9	0	.	.	-21
O=C(Nc1ccc(S(=O)(=O)NCCc2ccccc2)cc1)c1ccncc1	-10	34	i	-6	-25	-2	5	2
O=C(O)c1cccc(S(=O)(=O)Nc2ccc(O)cc2Sc2nc3ccccc3s2)c1	-16	4	i	-2	2	7	-6	-16
C/C(=N\NC(=O)c1nnn(-c2nonc2N)c1CN1CCCCCC1)c1ccc(Br)cc1	-13	5	i	-2	-1	5	-4	-3
